From PubChem
KCNQ2 block: KCNQ2 potassium channel inhibitors, primary screen, cell-based, CHO-K1, FluxOR thallium flux, B-score (AID 2156). O88943. 20 min; hits give low values; only compounds with negative scores are shown here; some inactives read as strong as hits. B-score at 10 µM. hit rate 1.1% among 310,000;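 active means fluorescence ratio B-score at most minus 3 library SDs, with starting brightness B-score within 2 library SDs, cut at about -5.5 in these data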
Target sequence (O88943 whole entry, looked up): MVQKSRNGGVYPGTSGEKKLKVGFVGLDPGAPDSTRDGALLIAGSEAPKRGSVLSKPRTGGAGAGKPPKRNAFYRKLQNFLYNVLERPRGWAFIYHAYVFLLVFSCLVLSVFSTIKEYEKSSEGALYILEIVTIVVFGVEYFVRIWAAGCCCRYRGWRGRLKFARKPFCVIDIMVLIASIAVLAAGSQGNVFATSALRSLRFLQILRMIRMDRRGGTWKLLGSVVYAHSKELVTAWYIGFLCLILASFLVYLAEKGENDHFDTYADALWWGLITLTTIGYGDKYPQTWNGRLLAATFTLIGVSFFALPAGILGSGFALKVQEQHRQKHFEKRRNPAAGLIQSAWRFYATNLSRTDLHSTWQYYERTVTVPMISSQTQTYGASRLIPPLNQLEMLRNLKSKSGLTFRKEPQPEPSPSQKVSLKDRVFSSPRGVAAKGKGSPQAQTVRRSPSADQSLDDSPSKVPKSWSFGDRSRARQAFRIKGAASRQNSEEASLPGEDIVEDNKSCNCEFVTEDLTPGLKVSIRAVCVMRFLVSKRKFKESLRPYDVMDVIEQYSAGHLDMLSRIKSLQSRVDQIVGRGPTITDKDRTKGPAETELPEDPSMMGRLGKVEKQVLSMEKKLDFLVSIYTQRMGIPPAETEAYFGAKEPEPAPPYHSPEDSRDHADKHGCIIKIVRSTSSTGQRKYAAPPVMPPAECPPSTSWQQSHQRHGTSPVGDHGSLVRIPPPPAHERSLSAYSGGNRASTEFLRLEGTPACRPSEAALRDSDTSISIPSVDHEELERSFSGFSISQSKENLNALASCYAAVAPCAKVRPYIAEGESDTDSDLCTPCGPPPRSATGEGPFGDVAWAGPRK
KCNQ2 block baseline: recorded beside KCNQ2 block, whose call it bears; B-score; measured here: initial fluorescence intensity artifact check;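 brightness before thallium and not channel activity; 0 = typical well and far values either way flag optical interference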
* marks the source's active call; other numbers are inactive results.

What do the screens show for `COc1ccc(/C=C/C(=O)Nc2cc(S(=O)(=O)N3CCOCC3)ccc2C)cc1OC`?
KCNQ2 block: inactive; KCNQ2 block baseline: 8.48

Results for Cc1cc(NC(=O)COc2coc(CN3CCN(c4ccc(F)cc4)CC3)cc2=O)no1 ?
KCNQ2 block: inactive; KCNQ2 block baseline: -0.13

Results for CCOc1ccccc1N(C)C(=O)c1cc2c(=O)n(CC)c3ccccc3c2s1 ?
KCNQ2 block: inactive; KCNQ2 block baseline: 1.16

Results for COc1ccc(/C=N/OC(=O)Nc2ccc(Cl)cc2)c(OC)c1 ?
KCNQ2 block: inactive; KCNQ2 block baseline: -0.11

What do the screens show for `O=C(CCC(=O)Nc1ccccc1)N/N=C/c1ccc2c(c1)OCO2`?
KCNQ2 block: inactive; KCNQ2 block baseline: 2.2

Results for COc1ccc(-c2c(C#N)c(N)nc3c2CCC3)cc1 ?
KCNQ2 block: inactive; KCNQ2 block baseline: -0.23

Results for COc1ccccc1N1CCN(C(=O)c2ccc(-c3ccccc3)cc2)CC1 ?
KCNQ2 block: inactive; KCNQ2 block baseline: -1.17

How did O=C(COC(=O)c1ccc(O)cc1)NCCCc1ccccc1 do in these assays?
KCNQ2 block: inactive; KCNQ2 block baseline: 0.09

How did CCn1c(=O)cc(SCC(=O)NCCCN2CCN(c3ccc(F)cc3)CC2)c2ccccc21 do in these assays?
KCNQ2 block: inactive; KCNQ2 block baseline: -0.02

How did Cc1ccc(SC(C)C(=O)N2CCCC2)cc1 (stereo not given) do in these assays?
KCNQ2 block: inactive; KCNQ2 block baseline: 0.14

How did COc1ccc(NC(=O)NC(=O)c2cc(OCC(F)(F)F)ccc2OCC(F)(F)F)cc1 do in these assays?
KCNQ2 block: inactive; KCNQ2 block baseline: 0.08

Results for Cc1ccc(OC(=O)c2ccc(Br)o2)cc1 ?
KCNQ2 block: inactive; KCNQ2 block baseline: -0.88

Three compounds picked at random from those above, as already listed:
How did O=C(COC(=O)c1ccc(O)cc1)NCCCc1ccccc1 do in these assays?
KCNQ2 block: inactive; KCNQ2 block baseline: 0.09

Results for Cc1ccc(OC(=O)c2ccc(Br)o2)cc1 ?
KCNQ2 block: inactive; KCNQ2 block baseline: -0.88

Results for COc1ccc(-c2c(C#N)c(N)nc3c2CCC3)cc1 ?
KCNQ2 block: inactive; KCNQ2 block baseline: -0.23

(more compounds)
How did COc1cc(CCC(=O)OCC(=O)NCc2ccccc2)cc(OC)c1OC do in these assays?
KCNQ2 block: inactive; KCNQ2 block baseline: -0.2

What do the screens show for `CC(C)(C)c1cccc(Cn2nnc3ccccc32)c1O`?
KCNQ2 block: inactive; KCNQ2 block baseline: 0.07

What do the screens show for `CCOc1cc(CNc2ccc3c(c2)OCCO3)cc(Br)c1OCC(N)=O`?
KCNQ2 block: inactive; KCNQ2 block baseline: 0.14

How did CCOc1cc(NC(=S)NCCCN2CCOCC2)c(OCC)cc1NC(=O)CC(C)C do in these assays?
KCNQ2 block: inactive; KCNQ2 block baseline: -1.86

How did CC(OC(=O)Cc1n[nH]c(=O)c2ccccc12)C(=O)Nc1ccc(F)cc1 (stereo not given) do in these assays?
KCNQ2 block: inactive; KCNQ2 block baseline: 0.03

What do the screens show for `CN(C)NC(=S)NC1CC2CCC1C2` (stereo not given)?
KCNQ2 block: inactive; KCNQ2 block baseline: 0.43

Results for CC(=O)c1cn(C)c(=O)n(C)c1=O ?
KCNQ2 block: inactive; KCNQ2 block baseline: 0.95

What do the screens show for `Cc1onc(-c2ccccc2)c1C(=O)OCC(=O)Nc1cc(S(=O)(=O)N2CCOCC2)ccc1Cl`?
KCNQ2 block: inactive; KCNQ2 block baseline: -1.49

How did COc1ccc(N/C=C\C(=O)c2ccc(Br)cc2)cc1OC do in these assays?
KCNQ2 block: inactive; KCNQ2 block baseline: 4.58

What do the screens show for `Cc1ccc2nc(NC(=O)C3CCN(S(=O)(=O)c4cc([N+](=O)[O-])ccc4Cl)CC3)sc2c1`?
KCNQ2 block: inactive; KCNQ2 block baseline: -0.01

How did C#CCn1cc(Cl)cc(C(=O)Nc2ccccc2)c1=O do in these assays?
KCNQ2 block: inactive; KCNQ2 block baseline: 1.66

What do the screens show for `Cn1c(C(=O)OCC(=O)NCc2cccs2)cc2sccc21`?
KCNQ2 block: inactive; KCNQ2 block baseline: -0.23

Results for CCC(C)NC(=O)c1cc2c(=O)n(CC)c3ccccc3c2s1 (stereo not given) ?
KCNQ2 block: inactive; KCNQ2 block baseline: 1.11

How did O=C(C1=C[C@@H](c2ccc3c(c2)OCO3)C[C@@H](OCCCCO)O1)N1CCOCC1 do in these assays?
KCNQ2 block: inactive; KCNQ2 block baseline: 1.48

How did CC1=Nc2ccccc2N=C(NC(=O)CN2CCN(c3ccc(F)cc3)CC2)C1c1ccccc1 (stereo not given) do in these assays?
KCNQ2 block: inactive; KCNQ2 block baseline: -0.16

What do the screens show for `NC(=O)c1ccsc1NC(=O)CS(=O)(=O)c1ccccc1`?
KCNQ2 block: inactive; KCNQ2 block baseline: 1.55

How did CCOC(=O)C(CC(=O)c1ccccc1)CC(=O)c1ccccc1 do in these assays?
KCNQ2 block: inactive; KCNQ2 block baseline: -0.94

Results for CN(C)C(=O)CSc1n[nH]c(-c2ccco2)n1 ?
KCNQ2 block: inactive; KCNQ2 block baseline: -0.01

How did CC(C)=CCCC(C)CN1CCC(N2CCC(C(=O)N3CCOCC3)CC2)CC1 (stereo not given) do in these assays?
KCNQ2 block: inactive; KCNQ2 block baseline: 2.95

How did CCCCC1(Cc2ccc([N+](=O)[O-])cc2)C(=O)N(c2ccccc2)N(c2ccccc2)C1=O do in these assays?
KCNQ2 block: -5.97*; KCNQ2 block baseline: -0.87*

Results for C=CCNC(=O)COC(=O)c1ccc(Sc2nncn2C)c([N+](=O)[O-])c1 ?
KCNQ2 block: inactive; KCNQ2 block baseline: -0.72

What do the screens show for `Cc1ccc(CNC(=O)C(=O)NCC2CCCN2S(=O)(=O)c2cccs2)cc1` (stereo not given)?
KCNQ2 block: inactive; KCNQ2 block baseline: -0.07

How did CC(C)Oc1cc(O)c2c(=O)c(-c3ccc(O)cc3)coc2c1 do in these assays?
KCNQ2 block: inactive; KCNQ2 block baseline: 0.42

What do the screens show for `Cc1ccc(-n2c(SCc3cn4ccsc4n3)nc3ccccc3c2=O)cc1`?
KCNQ2 block: -5.63*; KCNQ2 block baseline: 0.57*

Quoted from the results shown, 2 compounds:
How did CC(C)Oc1cc(O)c2c(=O)c(-c3ccc(O)cc3)coc2c1 do in these assays?
KCNQ2 block: inactive; KCNQ2 block baseline: 0.42

What do the screens show for `Cc1ccc(-n2c(SCc3cn4ccsc4n3)nc3ccccc3c2=O)cc1`?
KCNQ2 block: -5.63*; KCNQ2 block baseline: 0.57*

(listing goes on)
How did Cc1ccc(-c2nnn(CC(=O)N(c3ccccc3)C(C(=O)NCC3CCCO3)c3ccc(F)cc3)n2)o1 (stereo not given) do in these assays?
KCNQ2 block: inactive; KCNQ2 block baseline: -0.54

How did COc1ccccc1N1CCN(C(=O)/C=C/c2cccs2)CC1 do in these assays?
KCNQ2 block: inactive; KCNQ2 block baseline: -0.57

How did Cc1cc(NC(=O)Cc2ccccc2[N+](=O)[O-])no1 do in these assays?
KCNQ2 block: inactive; KCNQ2 block baseline: 0.81

How did COc1cc(C2NC(=O)NC(C)=C2C(=O)OCC2CCCO2)ccc1O (stereo not given) do in these assays?
KCNQ2 block: inactive; KCNQ2 block baseline: 0.21

Results for COc1ccc(-c2nnc(SCC(=O)c3ccc(C)o3)o2)cc1 ?
KCNQ2 block: inactive; KCNQ2 block baseline: 0.23

How did CCOc1ccccc1C1C2=C(COC2=O)Nc2cc3c(cc21)OCO3 (stereo not given) do in these assays?
KCNQ2 block: inactive; KCNQ2 block baseline: -0.13

What do the screens show for `Cc1cc(C)nc(N/N=C/c2cccc(Cl)c2)n1`?
KCNQ2 block: inactive; KCNQ2 block baseline: 0.05

How did O=C(Nc1cccc(F)c1)C1CCN(C(=O)Cc2ccccc2)CC1 do in these assays?
KCNQ2 block: inactive; KCNQ2 block baseline: -0.31

Results for Cc1ccc(NC(=O)CN2C(=O)NC3(CCC(C)CC3)C2=O)c(Cl)c1 (stereo not given) ?
KCNQ2 block: inactive; KCNQ2 block baseline: 0.32

What do the screens show for `CCc1ccc(C(=O)c2oc3nc(C)cc(C)c3c2N)cc1`?
KCNQ2 block: inactive; KCNQ2 block baseline: 0.43

Results for Cc1cc(F)ccc1NCc1cccnc1 ?
KCNQ2 block: inactive; KCNQ2 block baseline: 1.43

What do the screens show for `COc1cc(C=Nc2cccc([N+](=O)[O-])c2C)ccc1OC(C)=O`?
KCNQ2 block: inactive; KCNQ2 block baseline: 0.38

In the list so far, these have an NH in an aromatic ring:
How did CC(OC(=O)Cc1n[nH]c(=O)c2ccccc12)C(=O)Nc1ccc(F)cc1 (stereo not given) do in these assays?
KCNQ2 block: inactive; KCNQ2 block baseline: 0.03

Results for CN(C)C(=O)CSc1n[nH]c(-c2ccco2)n1 ?
KCNQ2 block: inactive; KCNQ2 block baseline: -0.01

(list continues)
What do the screens show for `Cc1ccc(NC(=O)c2ccc(F)c(S(=O)(=O)N3CCOCC3)c2)cc1F`?
KCNQ2 block: inactive; KCNQ2 block baseline: -1.15

Results for Cc1cccc(C)c1NC(=O)CSc1nnc(-c2ccoc2C)n1C ?
KCNQ2 block: inactive; KCNQ2 block baseline: 1.65

Results for COc1ccc2c(c1)CC/C(=C\C=C\c1ccccc1)C2=O ?
KCNQ2 block: inactive; KCNQ2 block baseline: -1.21

How did CCOc1ccc(CN2CCNC(=O)C2CC(=O)NC2CCCCCC2)cc1 (stereo not given) do in these assays?
KCNQ2 block: inactive; KCNQ2 block baseline: -0.53

How did CCc1ccccc1NC(=O)Cn1nnc(C(=O)NCc2cccs2)c1N do in these assays?
KCNQ2 block: inactive; KCNQ2 block baseline: 0.41

What do the screens show for `Cc1cc(C)c(NC(=O)CN2CCN(C)CC2)c(C)c1`?
KCNQ2 block: inactive; KCNQ2 block baseline: -0.59

Results for COc1cc(/C=N/NC(=O)c2ccccc2)ccc1OS(=O)(=O)c1ccccc1 ?
KCNQ2 block: inactive; KCNQ2 block baseline: 1.13

How did COCCC(=O)N1CCC(Oc2ccc(C(=O)N3CCCCC3COC)cc2)CC1 (stereo not given) do in these assays?
KCNQ2 block: inactive; KCNQ2 block baseline: 2.08

Results for O=c1c2cc3ccccc3n2cnn1Cc1ccccc1F ?
KCNQ2 block: inactive; KCNQ2 block baseline: 3.91

What do the screens show for `COC(=O)c1cccc(S(=O)(=O)N2CCN(c3nc4ccccc4s3)CC2)c1`?
KCNQ2 block: inactive; KCNQ2 block baseline: 0.22

What do the screens show for `COc1ccc(C2C=C(C34CC5CC(CC(C5)C3)C4)NC(=S)N2)cc1OC` (stereo not given)?
KCNQ2 block: inactive; KCNQ2 block baseline: -0.89

How did COc1cc(/C=N/NC(=O)c2cnccn2)cc(OC)c1OC do in these assays?
KCNQ2 block: inactive; KCNQ2 block baseline: 1.45

How did O=C1c2cccc(OCC(=O)N3CCCc4ccccc43)c2CCN1Cc1ccccc1 do in these assays?
KCNQ2 block: inactive; KCNQ2 block baseline: -0.63

How did O=C(COC(=O)CCSc1ccccc1Cl)NCc1ccco1 do in these assays?
KCNQ2 block: inactive; KCNQ2 block baseline: -0.01

What do the screens show for `O=C(Nc1cccc(Cl)c1)c1cnccn1`?
KCNQ2 block: inactive; KCNQ2 block baseline: -0.02

Results for CCC(=O)N(CCc1ccccc1)Cc1cc2cc(C)ccc2[nH]c1=O ?
KCNQ2 block: inactive; KCNQ2 block baseline: 0.14

Results for O=c1[nH]snc1N1CCOCC1 ?
KCNQ2 block: inactive; KCNQ2 block baseline: -0.88

How did Cn1nc(-c2ccc(N3CCN(CCO)CC3)c([N+](=O)[O-])c2)c2ccccc2c1=O do in these assays?
KCNQ2 block: inactive; KCNQ2 block baseline: -0.56

How did CC1=CC(=C(C#N)c2nc3ccccc3s2)C=C(C)N1c1ccc(F)cc1F do in these assays?
KCNQ2 block: inactive; KCNQ2 block baseline: 0.38

What do the screens show for `Cc1cc(C)c2c(N)c(C(=O)c3ccc(Br)cc3)oc2n1`?
KCNQ2 block: inactive; KCNQ2 block baseline: -0.81

What do the screens show for `COC(=O)C(NC(=O)c1ccc(C)cc1)(Nc1cccc(C)n1)C(F)(F)F` (stereo not given)?
KCNQ2 block: inactive; KCNQ2 block baseline: -2.01

What do the screens show for `O=C(CCNc1ccc(F)c(Cl)c1)c1ccco1`?
KCNQ2 block: inactive; KCNQ2 block baseline: 0.37

Results for Cc1c(C)n2c(SCC(=O)N3CCCC3)nnc2[nH]c1=O ?
KCNQ2 block: inactive; KCNQ2 block baseline: 0.2

What do the screens show for `C=CCc1cc(Cl)ccc1OCCOCCN(C)C`?
KCNQ2 block: inactive; KCNQ2 block baseline: -1.99

Results for COc1ccc(C(=O)NC(=S)Nc2ccc(CN3CCCCC3)cc2)cc1Cl ?
KCNQ2 block: inactive; KCNQ2 block baseline: -0.09

What do the screens show for `O=C(NCc1ccco1)c1cc(-c2cccc(Cl)c2)on1`?
KCNQ2 block: inactive; KCNQ2 block baseline: 1.38

How did Cc1cc2c(cc1S(=O)(=O)CCC(=O)NCc1ccccc1)OCC(=O)N2 do in these assays?
KCNQ2 block: inactive; KCNQ2 block baseline: 0.43

Results for O=C(CSc1ncnc2c1oc1ccccc12)OCc1ccccc1 ?
KCNQ2 block: inactive; KCNQ2 block baseline: 0.01

How did O=C(NCc1ccccc1)/C(=C\c1ccc(O)cc1)NC(=O)c1ccco1 do in these assays?
KCNQ2 block: inactive; KCNQ2 block baseline: 0.63

How did CC(C)C(=O)Nc1nnc(CCN2CCOCC2)s1 do in these assays?
KCNQ2 block: inactive; KCNQ2 block baseline: 0.57

Compounds from the list above that contain a CF3 group, in the order listed:
How did COc1ccc(NC(=O)NC(=O)c2cc(OCC(F)(F)F)ccc2OCC(F)(F)F)cc1 do in these assays?
KCNQ2 block: inactive; KCNQ2 block baseline: 0.08

What do the screens show for `COC(=O)C(NC(=O)c1ccc(C)cc1)(Nc1cccc(C)n1)C(F)(F)F` (stereo not given)?
KCNQ2 block: inactive; KCNQ2 block baseline: -2.01

Some of the compounds tested (hit frequency here may not be typical).
